# From PubChem BioAssay
# Shh pathway inh: Sonic Hedgehog pathway inhibition; Shh-LIGHT2 Gli-luciferase reporter, 30 h; inhibition, % (concentration not given with the values); hit rate 2.1% among 22,000; AID 2313;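 active means replicate mean of 65% or more; inconclusive means mean lower but half the replicates past it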;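 further: pathway switched on by Shh-conditioned medium diluted 1 in 25 in low serum; 100 nL library stock added to about 40 µL; 0% = median of neutral wells and 100% = positive control level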
# PD-1 reverse act: activators reversing PD-1 mediated T-cell inhibition; 29,000 tested, under 10 active; activation, % (test concentration not listed); primary human CD4 T cells, PD-L1 beads, CellTiter-Glo 96 h; AID 2316;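 active means replicate mean of 50% or more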;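 further: 0% = median vehicle wells and 100% = positive control; 100 nL library stock added to about 50 µL; numbers are from one replicate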
# YB-1 expr inh: YB-1 expression inhibition; delta delta Cp (YB-1 minus CDIP) (test concentration not listed); U2OS, qRT-PCR YB-1 vs CDIP delta delta Cp, 16 h; hits give high values; zero = DMSO, each unit about twofold; hit rate 0.37% among 30,000;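 active means delta delta Cp rounded down to an integer at or above 3, about 3 SD of DMSO wells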;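 further: higher means less YB-1 transcript or more CDIP transcript relative to DMSO; stock transfer was 100 nL into about 100 µL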
# MITF inh: MITF inhibition; hit rate 0.28% among 37,000; inhibition, % (concentration not given with the values); TRPM1 promoter luciferase, luminescence, 24 h;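 active means most replicates at 85% or more, or half of them and the mean; inconclusive means half reach 85% but not the mean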;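 further: human melanocyte line stably carrying TRPM1 promoter luciferase reporter; 0% = vehicle wells and 100% = a positive control; the first replicate is given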
# Numbers without * were called inactive; ? = inconclusive; / = not tested or not shown. This is a subset. The share of hits here may be higher or lower than overall.
item	compound	Shh pathway inh	PD-1 reverse act	YB-1 expr inh	MITF inh
1	CNC[C@@H]1Oc2ccc(NC(=O)Nc3ccc4c(c3)OCO4)cc2C(=O)N([C@H](C)CO)C[C@@H]1C	-6.7	0.8	-0.0472	-11.8
2	C[C@@H]1CN([C@H](C)CO)C(=O)c2cccc(NS(=O)(=O)c3ccc(F)cc3)c2O[C@@H]1CN(C)S(C)(=O)=O	-4.0	2.9	-0.204	-7.0
3	CCOC(=O)[C@H](CCc1ccccc1)N[C@H]1CCc2ccccc2N(CC(=O)O)C1=O	21.6	/	-0.0185	-1.9
4	COc1ccc(S(=O)(=O)N(C)C[C@@H]2OCCCC[C@@H](C)Oc3ccc(NC(=O)CCCN(C)C)cc3C(=O)N([C@H](C)CO)C[C@@H]2C)cc1	-35.0	/	-0.244	-4.2
5	N#Cc1c(NC(=O)CSc2nc(-c3ccccc3)cc(C(F)(F)F)n2)sc2c1CCC2	/	-0.3	/	2.1
6	C[C@@H]1CCCCO[C@@H](CN(C)S(=O)(=O)c2cn(C)cn2)[C@@H](C)CN([C@H](C)CO)C(=O)c2cc(NC(=O)Nc3ccc(F)cc3)ccc2O1	27.8	0.5	0.277	-0.9
7	C[C@H](CO)N1C[C@H](C)[C@H](CN(C)S(=O)(=O)c2ccc(F)cc2)Oc2c(NC(=O)Nc3ccc4c(c3)OCO4)cccc2C1=O	92.5*	-0.8	-0.376	-10.7
8	CC12CC3(C)CC(C)(C1)CC(C(=O)NC(=S)NC(C)(C)C)(C2)C3	-8.0	-0.1	-0.0247	-2.1
9	O=c1cc(-c2ccccc2)nc2nc(NCc3cccc([N+](=O)[O-])c3)[nH]n12	/	2.0	/	-18.6
10	O=C(CC1(O)C(=O)Nc2ccccc21)c1cccc(-n2cccc2)c1 (centres undefined)	/	0.5	/	-46.4
11	C[C@H](CO)N1C[C@H](C)[C@H](CN(C)CC2CC2)Oc2c(NS(=O)(=O)c3ccccc3)cccc2C1=O	-4.1	1.9	-0.461	3.5
12	COc1ccc(S(=O)(=O)N(C)C[C@H]2Oc3c(NC(=O)NC(C)C)cccc3C(=O)N([C@H](C)CO)C[C@@H]2C)cc1	42.1	/	-0.157	-3.0
13	C[C@@H]1CN([C@@H](C)CO)C(=O)c2cc(NS(C)(=O)=O)ccc2O[C@@H]1CN(C)C(=O)Nc1ccc2c(c1)OCO2	/	1.2	0.106	-5.5
14	CS(=O)(=O)N(CC(=O)Nc1cccc2ccccc12)c1ccc(I)cc1	/	-0.4	/	-41.1
15	COc1ccc(NC(=O)N(C)C[C@H]2Oc3ccc(NC(=O)Nc4cccc5ccccc45)cc3C(=O)N([C@H](C)CO)C[C@H]2C)cc1	/	-1.2	-0.0782	-1.3
16	Cc1nn(CC(=O)Nc2ccc(C(=O)N(C)C)cc2)c(=O)c2ccccc12	/	0.0	/	-5.4
17	COc1ccc(-n2nnnc2SCC(=O)c2ccc(O)c(O)c2)cc1	/	-2.5	/	1.1
18	COC(=O)c1ccc(NC(=O)CSc2nnc(C)s2)cc1	/	2.0	/	-11.3
19	NS(=O)(=O)c1ccc(NC(=O)CC2c3ccccc3Oc3ccccc32)cc1	/	-0.8	/	-17.9
20	O=C(COc1ccc2ccccc2c1Br)NCc1ccco1	/	-1.2	/	-106.2
21	C[C@@H]1CN([C@H](C)CO)C(=O)Cc2cc(NC(=O)NC3CCCCC3)ccc2O[C@H]1CN(C)S(=O)(=O)c1ccc(F)cc1	-10.4	-0.3	0.204	-7.5
22	CC(C)NC(=O)N(C)C[C@@H]1Oc2c(cccc2N(C)C)C(=O)N([C@@H](C)CO)C[C@@H]1C	-6.1	0.9	2.04	1.5
23	COc1ccc(NC(=O)Nc2ccc3c(c2)C(=O)N([C@H](C)CO)C[C@H](C)[C@@H](CN(C)Cc2ccc(Cl)c(Cl)c2)OCCCC[C@@H](C)O3)cc1	20.9	/	0.243	19.8
24	CN1CCN(C(=O)CN(c2cccc([N+](=O)[O-])c2)S(C)(=O)=O)CC1	/	3.7	/	-7.3
25	C[C@H](CO)N1C[C@H](C)[C@H](CN(C)S(C)(=O)=O)Oc2c(NC(=O)C3CCOCC3)cccc2C1=O	-11.3	/	-0.275	-13.2

# Entries of single compounds as entered above. Order of screens: Shh pathway inh | PD-1 reverse act | YB-1 expr inh | MITF inh
# Listed for CCOC(=O)[C@H](CCc1ccccc1)N[C@H]1CCc2ccccc2N(CC(=O)O)C1=O = 21.6 | / | -0.0185 | -1.9
# Listed for C[C@H](CO)N1C[C@H](C)[C@H](CN(C)CC2CC2)Oc2c(NS(=O)(=O)c3ccccc3)cccc2C1=O = -4.1 | 1.9 | -0.461 | 3.5

# (cont.)
item	compound	Shh pathway inh	PD-1 reverse act	YB-1 expr inh	MITF inh
26	CCn1c(SCC(=O)Nc2ccc(Cl)c(Cl)c2)nnc1-c1cccnc1	/	-1.6	/	4.0
27	Cc1ccc(Cl)cc1N(CC(=O)O)S(C)(=O)=O	/	1.2	/	6.8
28	N#CC(C#N)=C(N)Nc1ccccc1	-37.7	0.9	-0.191	8.2
29	COc1ccccc1-c1nnc(SCC(=O)c2ccc([N+](=O)[O-])cc2)o1	/	-1.2	/	-65.4
30	COc1ccc(C(=O)CCC(=O)Nc2ccc(C(=O)O)cc2)cc1OC	/	0.7	/	5.7
31	COc1ccc(CN(C)C[C@H]2Oc3ccc(NS(=O)(=O)c4ccc(OC)cc4)cc3C(=O)N([C@@H](C)CO)C[C@H]2C)cc1	36.2	2.0	-0.276	7.7
32	C[C@H]1CN([C@@H](C)CO)C(=O)Cc2cc(NC(=O)Cc3ccccc3)ccc2O[C@@H]1CN(C)Cc1ccc(-c2ccccc2)cc1	-1.4	-0.2	-0.0457	14.6
33	C[C@H](CO)N1C[C@H](C)[C@@H](CN(C)S(=O)(=O)c2ccc(F)cc2)Oc2c(NC(=O)Nc3ccc(C(F)(F)F)cc3)cccc2C1=O	-43.6	-2.1	-0.201	29.8
34	COc1ccc(S(=O)(=O)N(C)C[C@H]2Oc3ccc(NC(=O)CCCN(C)C)cc3C(=O)N([C@H](C)CO)C[C@H]2C)cc1	-8.7	-0.8	-0.00439	15.3
35	C[C@H](CO)N1C[C@H](C)[C@H](CN(C)C(=O)Nc2ccc(C(F)(F)F)cc2)Oc2c(NC(=O)C3CC3)cccc2C1=O	-15.0	0.7	-0.38	7.7
36	Cc1ccc(S(=O)(=O)Nc2ccc3c(c2)C(=O)N([C@H](C)CO)C[C@@H](C)[C@@H](CN(C)S(=O)(=O)c2ccc(C)cc2)O3)cc1	31.8	1.4	-0.0879	-3.1
37	CNC(=S)N(Cc1ccco1)C1CC(=O)N(c2ccccc2)C1=O (centres undefined)	/	-3.2	/	5.1
38	O=C(Nc1ccccc1[N+](=O)[O-])c1cc(S(=O)(=O)Nc2ccccc2)ccc1Cl	/	0.8	/	8.3
39	Cc1ccc(S(=O)(=O)Nc2ccc3c(c2)CC(=O)N([C@H](C)CO)C[C@@H](C)[C@@H](CN(C)C(=O)Nc2ccc4c(c2)OCO4)O3)cc1	-5.9	0.8	-0.00319	4.2
40	Cc1onc(-c2ccccc2)c1C(=O)N1CCCN2C(=O)c3ccccc3C21 (centres undefined)	-16.0	-0.4	0.0601	6.7
41	O=C(Cn1cnc2ccccc2c1=O)Nc1ccc2c(c1)Cc1ccccc1-2	/	0.3	/	10.0
42	CC1CC(=O)C2=C(O1)OC1(C)CCC3(O)C(C)(C)C=CC(=O)C3(C)C1C2 (centres undefined)	1.0	-0.1	0.749	8.0
43	COc1ccc(S(=O)(=O)Nc2cccc3c2O[C@@H](CN(C)C(=O)Nc2ccc(F)cc2)[C@@H](C)CN([C@H](C)CO)C3=O)cc1	1.4	-3.6	0.271	14.1
44	COc1ccc(OC(C)C(=O)Nc2cc(OC)cc(OC)c2)cc1 (centres undefined)	/	0.9	/	-5.4
45	C[C@@H]1CN([C@@H](C)CO)C(=O)c2cccc(NC(=O)C3CCCCC3)c2O[C@@H]1CN(C)Cc1ccc(Cl)c(Cl)c1	30.9	-4.4	0.239	47.0
46	C[C@H](CO)N1C[C@H](C)[C@@H](CN(C)Cc2ccc(C(=O)Nc3ccccc3N)cc2)Oc2ccc(NS(C)(=O)=O)cc2C1=O	/	-0.7	0.473	-3.8
47	CCc1cccc(OCC(=O)Nc2cccc(-c3nnc(-c4ccccc4)o3)c2)c1	/	3.0	/	-30.8
48	COc1ccc(NC(=O)Nc2ccc3c(c2)CC(=O)N([C@H](C)CO)C[C@H](C)[C@H](CN(C)C(=O)Nc2ccc4c(c2)OCO4)O3)cc1	-13.1	/	-0.197	-2.1
49	Cc1cc(C(=O)Nc2cccc3c2O[C@H](CN(C)S(=O)(=O)c2ccc(Cl)cc2)[C@@H](C)CN([C@H](C)CO)C3=O)n(C)n1	19.7	/	-0.0237	-10.5
50	C[C@H](CO)N1C[C@H](C)[C@H](CN(C)C(=O)Nc2ccccc2)Oc2ccc(NC(=O)Nc3ccc(C(F)(F)F)cc3)cc2C1=O	14.4	-3.7	0.748	44.9

# Pulled by compound from above (three):
item	compound	Shh pathway inh	PD-1 reverse act	YB-1 expr inh	MITF inh
30	COc1ccc(C(=O)CCC(=O)Nc2ccc(C(=O)O)cc2)cc1OC	/	0.7	/	5.7
15	COc1ccc(NC(=O)N(C)C[C@H]2Oc3ccc(NC(=O)Nc4cccc5ccccc45)cc3C(=O)N([C@H](C)CO)C[C@H]2C)cc1	/	-1.2	-0.0782	-1.3
5	N#Cc1c(NC(=O)CSc2nc(-c3ccccc3)cc(C(F)(F)F)n2)sc2c1CCC2	/	-0.3	/	2.1

# (cont.)
item	compound	Shh pathway inh	PD-1 reverse act	YB-1 expr inh	MITF inh
51	COc1ccc(S(=O)(=O)N(C)CC(=O)Nc2ccc(I)cc2)cc1OC	/	-2.5	/	8.8
52	C[C@H]1CN([C@@H](C)CO)C(=O)c2cc(NC(=O)c3ccncc3)ccc2O[C@@H]1CN(C)Cc1ccccc1	18.1	-0.3	0.39	2.8
53	C=CC1(C)C[C@H](OC(=O)C(C)CO)[C@H]2C(=C)C(=O)O[C@@H]2C1C(=C)CO (some centres undefined)	31.6	-7.7	-0.11	4.6
54	CC(C)NC(=O)Nc1cccc2c1O[C@H](CN(C)S(=O)(=O)c1ccccc1)[C@H](C)CN([C@H](C)CO)C2=O	27.3	1.3	-0.531	7.0
55	CC(C)NC(=O)Nc1ccc2c(c1)C(=O)N([C@H](C)CO)C[C@H](C)[C@H](CN(C)C(=O)NC1CCCCC1)OCCCC[C@@H](C)O2	-5.3	/	-0.207	7.4
56	O=C(Cn1c(C(F)(F)F)nc2ccccc21)NCCN1CCOCC1	/	0.7	/	-23.2
57	Cc1nnc(SCC(=O)Nc2sc3c(c2C#N)CCC(C(C)(C)C)C3)s1 (centres undefined)	/	-0.3	/	34.2
58	C=C(CC/C=C(\C)C(=O)O)C1(O)CC=C(C)CC1 (centres undefined)	-3.9	-0.3	-0.182	8.2
59	CC(=O)S[C@@H]1CC2=CC(=O)CC[C@]2(C)[C@H]2CC[C@@]3(C)[C@@H](CC[C@@]34CCC(=O)O4)[C@H]12	12.7	-3.0	0.337	1.4
60	Clc1ccc2nc(Cl)cc(-c3ccccc3)c2c1	0.7	-0.9	0.0378	-5.2
61	Cc1c(Br)c([N+](=O)[O-])nn1CC(=O)Nc1cccc(C(F)(F)F)c1	/	-4.4	/	45.7
62	COc1ccc(-c2nc(SCC(=O)Nc3ccc(Br)c(C)c3C)n[nH]2)cc1	/	-1.9	/	7.1
63	C[C@H](CO)N1C[C@H](C)[C@@H](CN(C)S(=O)(=O)c2ccc(Cl)cc2)Oc2c(NS(=O)(=O)c3ccc(F)cc3)cccc2C1=O	9.4	-1.3	-0.103	3.0
64	C[C@@H]1CN([C@@H](C)CO)C(=O)c2cc(NC(=O)C3CCCCC3)ccc2O[C@@H]1CN(C)CC1CC1	-4.5	0.2	0.262	-5.9
65	CSc1ccccc1NC(=O)CN(c1cccc(C)c1)S(C)(=O)=O	/	0.0	/	5.1
66	COCC1OC(OC(C)(C)C2CCC3(C)C(O2)C(O)CC2(C)/C(=C4\CCC(O)C(C)(CCC(O)C(C)(C)O)C4)CCC23)C(NC(C)=O)C(O)C1O (centres undefined)	9.8	-1.5	0.241	-5.2
67	C[C@@H]1CN([C@H](C)CO)C(=O)c2cccc(NS(=O)(=O)c3ccc(Cl)cc3)c2O[C@H]1CN(C)Cc1ccc(C(=O)O)cc1	14.2	/	-0.0271	-0.5
68	CC(C)NC(=O)Nc1cccc2c1O[C@H](CN(C)S(=O)(=O)c1cn(C)cn1)[C@@H](C)CN([C@@H](C)CO)C2=O	/	/	-0.767	11.6
69	Cc1ccc(S(=O)(=O)Nc2ccc3c(c2)CC(=O)N([C@H](C)CO)C[C@@H](C)[C@H](CN(C)S(=O)(=O)c2ccc(C)cc2)O3)cc1	/	/	-0.169	12.8
70	COc1ccc(CN(C)C[C@H]2Oc3c(NC(=O)Nc4ccc(C(F)(F)F)cc4)cccc3C(=O)N([C@@H](C)CO)C[C@@H]2C)cc1	?	-6.3	-0.464	35.8
71	C[C@H]1CN([C@@H](C)CO)C(=O)c2cc(NC(=O)CCCN(C)C)ccc2O[C@@H]1CN(C)C	/	3.6	0.108	-10.3
72	COc1ccc(NC(=O)N(C)C[C@@H]2Oc3ccc(NC(=O)Nc4ccc(F)cc4)cc3C(=O)N([C@H](C)CO)C[C@H]2C)cc1	/	/	-2.1	-2.3
